# H5N1 antiviral – MDCK cell protection from H5N1 avian flu; cytopathic effect, luminescence, 72 h; hits give high values; no value below 0 was filed and about half of the inactive calls have no number; reference of the scale not given here; inhibition, % at 50 µM; AID 740; 96,000 compounds, 0.07% hits; in the data active = inhibition above about 25%
# Active calls of the source: *; i = inactive. Only part of the results is shown. The share of hits here may be higher or lower than overall.
SMILES,H5N1 antiviral
COc1ccc(OC)c(Nc2nc(-c3sc(NC(=O)c4ccccc4)nc3C)cs2)c1,i
O=C(NCc1ccccn1)c1coc(=O)c(Br)c1,4.3
CCOC(=O)N1CCN(Cc2nc(N)nc(Nc3ccc(C)cc3)n2)CC1,0.5
CCCc1cc(=O)n2[nH]c(-c3ccc(Br)cc3)cc2n1,1.6
O=C(CN1CCN(S(=O)(=O)c2ccccc2)CC1)Nc1cccc(C(F)(F)F)c1,0.1
Cc1ccccc1OC(=O)n1c(=S)oc2cc(Cl)ccc21,0.8
COc1ccc(CN2CCN(S(=O)(=O)c3ccccc3)CC2)c(OC)c1,i
CCn1c(-c2cc(-c3ccc(OC(C)C)cc3)nc3ccccc23)n[nH]c1=S,2.5
Cc1cccc(Cn2c(C(C)O)nc3ccccc32)c1 (stereo unspecified),i
CCC(=O)N1CCc2cc(S(=O)(=O)NCCC(=O)N3CCN(Cc4ccccc4)CC3)ccc21,0.9
Cc1noc(/C=C/N(C)C)c1S(=O)(=O)N1CCN(c2ccccc2)CC1,1.0
COc1cc2ncnc(NCc3ccccc3)c2cc1OC,0.4
O=C(COC(=O)C1CCN(S(=O)(=O)c2cc([N+](=O)[O-])ccc2Cl)CC1)Nc1ncc(Cl)cc1Cl,0.6
Cc1ccc(NC(=S)NNC(=O)c2c([N+](=O)[O-])c(C)nn2C)cc1,i
Nn1cnnc1SC1CCCCC1NS(=O)(=O)c1ccccc1 (stereo unspecified),i
CCCN1C2=NCCN2c2cc(C)c(C)cc21,i
CCCCn1c(=O)[nH]c(=O)c2c1nc(-c1ccc(-c3ccccc3Br)o1)n2CC,1.4
O=C(Nc1cc(=O)c2ccccc2o1)N1CCOCC1,i
Cc1nc(NCc2ccco2)c2c3c(sc2n1)CCC3,0.5
CCOC(=O)C1CCCN(S(=O)(=O)c2ccc(OC)c3ccccc23)C1 (stereo unspecified),3.0
COc1ccc(S(=O)(=O)Cc2ccc(C(=O)N3CCC4(CC3)OCCO4)o2)cc1,1.4
CC(C)CC1C(C#N)=C(N)SC(N)=C1C#N,i
CCOC(=O)N1CCN(C(=O)c2cc3c(ccc4ccccc43)oc2=O)CC1,i
Cc1c(Br)c([N+](=O)[O-])nn1CC(=O)Nc1sc2c(c1C(=O)OC(C)C)CCCC2,i
Cn1cnc([N+](=O)[O-])c1NC(C)(C)C,0.4
CCSc1nnc(-c2ccc(Cl)cc2Cl)o1,1.8
S=c1[nH]nc(CSCc2ccc(Cl)cc2Cl)n1-c1ccccc1,i
CCOc1ccc(-c2nnc3ccc(SCC(=O)NCc4ccco4)nn23)cc1,1.7
Cc1ccc(C2(CC(=O)N3CCCC3)CCOC(C(C)C)C2)cc1 (stereo unspecified),i
O=C(c1ccc(C(F)(F)F)cc1)c1c[nH]c(C(=O)NCCCn2ccnc2)c1,i

# Some values from the list.
# CCOc1ccc(-c2nnc3ccc(SCC(=O)NCc4ccco4)nn23)cc1 in H5N1 antiviral reads 1.7
# Cn1cnc([N+](=O)[O-])c1NC(C)(C)C in H5N1 antiviral reads 0.4
# CCSc1nnc(-c2ccc(Cl)cc2Cl)o1 in H5N1 antiviral reads 1.8

# The list goes on:
SMILES,H5N1 antiviral
Cc1nn(C)c(C)c1C(=O)NN,0.0
Fc1ccc(C(c2nnnn2C2CCCC2)N2CCN(Cc3ccncc3)CC2)cc1 (stereo unspecified),i
CCC(C)(C)NC(=O)C(c1ccc(F)cc1)N(Cc1ccco1)C(=O)c1cnccn1 (stereo unspecified),i
COc1ccc(-c2nc(-n3c(C)c(C(C)=O)c(C(C)=O)c3C)sc2C)cc1OC,i
O=C(CSC1=NCCS1)Nc1ccccc1F,i
CCOC(=O)N1CCN(C/C(C)=C/c2ccccc2)CC1,2.1
O=C(COC(=O)C1CCCN1C(=O)c1cccs1)Nc1ccc2c(c1)OCO2 (stereo unspecified),i
CN1CCN(S(=O)(=O)c2ccc(C(=O)Nc3ccccc3)cc2)CC1,i
CCOCCCNC(=O)c1ccc(OC)cc1,2.3
O=C(O)c1ccc(CSc2nnc(-c3ccncc3)n2CC2CCCO2)cc1 (stereo unspecified),1.0
Cc1c(NC(=O)C2CC(c3ccc(F)cc3)=NO2)c(=O)n(-c2ccccc2)n1C (stereo unspecified),i
COc1cc(C(=O)NCc2nnc(SCC(=O)N3CCC(C)CC3)o2)cc(OC)c1OC,i
Cc1ccc(Oc2nc3ccccc3n3c(C)nnc23)cc1,1.6
O=C(c1cc2nc(-c3cccs3)cc(C(F)(F)Cl)n2n1)N1CCCc2ccccc21,1.9
CCc1c(C)[nH]n(CCC#N)c1=O,1.3
CCCCN(CCCNC(=O)CN1C(=O)COc2ccccc21)c1ccccc1,i
COc1ccc(C)cc1NC(=O)CSc1nnc(CC(=O)Nc2cccc(C(F)(F)F)c2)n1C,i
Cc1ccc(S(=O)(=O)N2CCC(C(=O)N(C)C3CCS(=O)(=O)C3)CC2)cc1 (stereo unspecified),2.1
Cn1c(N2CCOCC2)c(/C=N/OC(=O)c2ccc(F)cc2)c2ccccc21,4.3
CCn1c(C(=O)NCc2cccnc2)cc2sc(Cl)cc21,i
CC(=O)c1cccc(NC(=O)Cc2ccc3c(c2)CCCC3)c1,i
Cc1ccc(N2CC(C(=O)NC3=NCCS3)CC2=O)cc1C (stereo unspecified),i
CCN(CCO)Cc1csc2cccc(Br)c12,1.3
Cc1ccc(NC(=O)CSc2nnc(CCCCCNC(=O)OC(C)(C)C)o2)c(C)c1,0.0
O=C(O)CCC(=O)N1CCc2cc(S(=O)(=O)N3CCC(Cc4ccccc4)CC3)ccc21,2.5
CCc1ccc(NC(=O)c2noc3c2CCc2ccccc2-3)cc1,0.3
CCCCSc1nc(C)cc(SCC(=O)N/N=C/c2cccc(OC)c2O)n1,0.5
Cc1cccc(NC2=Nc3ccccc3N3C2=Nc2c(c(C)nn2-c2ccccc2)C3c2ccc(O)c(O)c2)c1 (stereo unspecified),i
Nc1nnnn1/N=C/c1ccco1,1.0
O=C(NC1CC1)c1ccc(S(=O)(=O)NCC2CCCCC2)cc1,i

# Copied from the entries so far for reference:
SMILES,H5N1 antiviral
CCc1ccc(NC(=O)c2noc3c2CCc2ccccc2-3)cc1,0.3
CCCCSc1nc(C)cc(SCC(=O)N/N=C/c2cccc(OC)c2O)n1,0.5
Cc1cccc(NC2=Nc3ccccc3N3C2=Nc2c(c(C)nn2-c2ccccc2)C3c2ccc(O)c(O)c2)c1 (stereo unspecified),i
Nc1nnnn1/N=C/c1ccco1,1.0
O=C(NC1CC1)c1ccc(S(=O)(=O)NCC2CCCCC2)cc1,i

# Next part.
SMILES,H5N1 antiviral
O=C1CSC(c2ccco2)N1 (stereo unspecified),0.1
CCc1c(C)c2cc(Cl)c(O)c(CN(CC)CC)c2oc1=O,i
Cc1cccc(-n2c(=O)[nH]c3c(C(N)=O)nc(C(C)C)nc32)c1,1.9
COC(=O)C1=C(C)N(CCc2ccccc2)C(=O)C1,i
CC1CN(C(=O)/C=C/c2ccc3c(c2)OCO3)CC(C)O1 (stereo unspecified),i
O=C1CN(CC(=O)N2CCCCC2)c2ccccc2O1,i
Clc1nc2sccn2c1/C=N/n1cnc2ccccc21,3.3
CCN(CC)S(=O)(=O)c1ccc(NC(=O)C(C)N(c2ccc(OC)cc2)S(C)(=O)=O)cc1 (stereo unspecified),2.4
COc1ccccc1NC(=O)COc1ccc(/C=N/NS(=O)(=O)c2ccc(C)cc2)cc1,0.8
CCCCNc1ccccc1C(=O)OCC(=O)Nc1ccc(S(N)(=O)=O)cc1,i

# Another view of four compounds above:
COC(=O)C1=C(C)N(CCc2ccccc2)C(=O)C1
  H5N1 antiviral = i
CCCCNc1ccccc1C(=O)OCC(=O)Nc1ccc(S(N)(=O)=O)cc1
  H5N1 antiviral = i
O=C(NC1CC1)c1ccc(S(=O)(=O)NCC2CCCCC2)cc1
  H5N1 antiviral = i
COc1ccc(S(=O)(=O)Cc2ccc(C(=O)N3CCC4(CC3)OCCO4)o2)cc1
  H5N1 antiviral = 1.4

# The results go on.
SMILES,H5N1 antiviral
CC1CCC(NC(=O)CN2CCCN(Cc3ccc(F)cc3Cl)C2=O)CC1 (stereo unspecified),0.3
CC(=O)Nn1c(C)nnc1-n1nc(C)cc1C,0.7
COC(=O)CSc1nnc(-c2ccncc2)o1,1.9
Cc1cccc(NC2=NCC(=O)N2CCc2ccccc2)c1,i
CSc1nnc2c(n1)OC(c1ccc(C(=O)O)cc1)N(C(C)=O)c1ccccc1-2 (stereo unspecified),2.6
CC1(C)CC(O)CC(C)(C)N1CC(O)COCCOc1ccc(Br)cc1 (stereo unspecified),i
O=C(NC(=S)Nc1ccc2c(c1)OCO2)c1ccccc1,i
CCOC(=O)C1CCN(C(C(=O)NC2CCCCC2)c2ccc(OC)cc2)CC1 (stereo unspecified),1.0
COc1ccc(OC)c(CNC(=O)C2CCN(S(=O)(=O)N3CCCC3)CC2)c1,i
CSc1nc(C)cc(SCCO)n1,0.0
N=C1C(c2nc3ccccc3[nH]2)=C(O)CN1c1ccc(F)cc1,0.6
CCOC(=O)[C@@]1(C#N)[C@@H]2C=CC(C(N)=O)=CN2[C@@H](C(N)=O)[C@@H]1c1cccc(Cl)c1,0.1
O=C(C[n+]1cccc(NC(=O)c2ccccc2)c1)c1ccccc1,i
COc1ccc(C(=O)Nc2ccc(S(=O)(=O)NCc3ccco3)cc2)cc1OC,i
CCC(Sc1nc(C)cc(=O)[nH]1)C(=O)Nc1sc2c(c1C#N)CCCC2 (stereo unspecified),i
O=C(CSc1nnc(Cc2ccccc2)n1-c1ccc(Cl)cc1)N1CCOCC1,0.7
O=C(OC(C(=O)NC1CCCCC1)c1ccccn1)c1cccs1 (stereo unspecified),i
CCOC(=O)c1ccc(NC(=O)CCOc2ccc(C)cc2)cc1,i
Cc1cccc(CSC2=NCCN2C(=O)C2CC2)c1,i
O=C(c1ccc(CNc2c(NC3CCCCC3)c(=O)c2=O)cc1)N1CCc2ccccc21,i
O=C(CSc1n[nH]c(-c2ccc(S(=O)(=O)NC3CCCCC3)cc2)n1)N1CCCC1,i
Nc1nc(N)nc(-c2ccccn2)n1,i
O=C(c1ccc(CN2CCOCC2)cc1)N1CCN(Cc2ccccc2)CC1,0.6
COc1ccc2c(c1OC)C(=O)N1c3ccccc3SC21 (stereo unspecified),i
CC1CN(CC(=O)Nc2cccc(C(=O)Nc3cccc(C(F)(F)F)c3)c2)CC(C)O1 (stereo unspecified),3.0
Cc1ccc2cc(CN(Cc3cccs3)Cc3nnnn3CC3CCCO3)c(=O)[nH]c2c1 (stereo unspecified),1.1
COc1ccccc1CNC(=O)c1c(O)c2cc(OC)c(OC)cc2[nH]c1=O,0.1
COC(=O)CCN1CCC(C(N)=O)CC1,0.0
Cc1ccc(C(=O)Nc2ccc3c(c2)ncn3C)cc1,0.2
O=C(NC1(C(F)(F)F)NC(=O)N(Cc2cccnc2)C1=O)c1cccs1 (stereo unspecified),i
CC(=O)Nc1ccc(OCC(O)CN2CCN(Cc3ccccc3)CC2)cc1 (stereo unspecified),1.5
COc1ccc(-c2nnc(-c3ccc(N(C)C)cc3)o2)cc1,1.6
CC(=O)c1cccc(NC(=O)NCCS(C)=O)c1 (stereo unspecified),1.7
Cc1ccc(-c2cc(C(=O)N3CCCC3)no2)cc1,i
COC(=O)c1sccc1NC(=O)c1ccncc1,1.3
Cc1ccc(S(=O)(=O)N[C@H](C(=O)OCn2nnc3ccccc3c2=O)C(C)C)cc1,0.2
COc1ccc2nc(SCC(=O)Nc3ccc4c(c3)OCCO4)[nH]c2c1,0.1
OC(CNCC1CCCO1)Cn1c2ccc(Cl)cc2c2cc(Cl)ccc21 (stereo unspecified),i
Cc1cc(C)nc(Nc2n[nH]c(-c3ccc(N)cc3)n2)n1,i
CC1(C)CC(=O)C(C(C2=C(O)CC(C)(C)CC2=O)c2ccco2)C(=O)C1 (stereo unspecified),i
COC(=O)CSc1nc2c(c(=O)[nH]c(=O)n2C)n1CCC(C)C,0.7
Cc1cc(C(C)(C)C)cc(S(=O)(=O)NCC(=O)O)c1C,i
CCn1c2ccccc2c2nnc(SCc3ccccc3)nc21,2.1
CCCCn1nc2cc(C(=O)NCc3cc(C(F)(F)F)cc(C(F)(F)F)c3)ccc2c1OC,i
N#Cc1cn(CC(=O)NCCc2c[nH]c3ccccc23)c2ccccc12,1.4
O=C(CNC(=O)c1cccs1)NCC(=O)OCc1ccc(Cl)cc1,1.1
CCOc1ccc(-c2nnc(N)o2)cc1,i
CCN1CCN(C(=O)c2cc3c(=O)n(C)c4ccccc4c3n2C)CC1,3.4
CCCCc1c(C)nn(-c2nnc3c4ccccc4n(C)c3n2)c1C,2.7
O=C(O)c1ccc(CSc2nnc(Cc3ccccc3)o2)cc1,0.9
# Continued:
SMILES,H5N1 antiviral
CN(C)S(=O)(=O)c1ccc(C(=O)Oc2cc(=O)[nH]c3ccccc23)cc1,1.0
CCN(CC)C(NC(=O)c1ccccc1)C(=O)c1ccccc1 (stereo unspecified),0.5
COc1ccc(-c2cc(C(=O)Nc3c(C)nn(Cc4ccccc4Cl)c3C)no2)cc1,i
CCc1c(O)nc(SCc2ccccc2)n(C(C)CC)c1=O (stereo unspecified),2.7
Nc1nnc(CCC2CCCCC2)s1,i
COc1cccc(N(CC(=O)NC2CCCC2)C(=O)Cn2nnc(-c3ccc(C)cc3)n2)c1,i
CCC(C(=O)NCCN1CCN(C)CC1)n1c(C)c2cnn(-c3ccccc3)c(=O)c2c1C (stereo unspecified),1.5
CC1CCN(S(=O)(=O)c2ccc(S(=O)(=O)NCC3COCCO3)cc2)CC1 (stereo unspecified),0.2
CCOc1ccc(NC(=O)C2CC=CCC2C(=O)O)cc1 (stereo unspecified),i
CCOC(=O)N1CCN(C(=O)COc2ccccc2OC)CC1,i
COc1ccc(-n2c(Cc3cccn3C)nnc2SCC(=O)Nc2cccc(C)c2C)cc1,i
CCOC(=O)c1[nH]c(CSc2nnc(-c3ccc(OC)cc3)o2)c(C(=O)OCC)c1C,0.5
COc1cccc(COc2cc3ccccc3nc2C)c1,0.6
O=c1c2cc(N3CCOCC3)ccc2[nH]c(=S)n1CCCN1CCCC1,1.1
CCN(CC)S(=O)(=O)c1ccc2oc(SCc3ccc(F)cc3)nc2c1,1.1
